# Assay outcomes deposited in PubChem by several laboratories.
# MT1-MMP act inh: inhibitors of human MT1-MMP activation; P50281; HT1080 RFP-PRO-GFP cells, GFP/RFP ratio fluorescence, overnight; percent of plate control window, DMSO zero; GFP/RFP ratio change, % at 20 µM; 0.061% of 360,000 active; AID 651647;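 active means GFP/RFP ratio change of at least 30% with cell ATP level not reduced by more than half and red fluorescence within 50% of control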; further: strong numbers were not always called active
#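 Assay system: HT1080 cells carrying an RFP-PRO-GFP reporter | Dosing: Single dose of 20 µM compound, 1% DMSO final | Incubation: Cells overnight before dosing, compound overnight, 37 °C, 5% CO2 | Evaluation: GFP/RFP fluorescence ratio | Control set: DMSO and RFP-L50D-GFP cell wells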
# Yeast UUG start: alters start codon recognition fidelity in yeast | activity score, % at 18.7 µM | S. cerevisiae UUG-firefly luciferase reporter, luminescence/redox ratio | 0.13% of 350,000 active;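 active means replicate mean at a twofold rise or more, about +100% in these data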;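 further: firefly luciferase made from a UUG start codon reports start codon fidelity; reporter light over untreated wells divided by growth signal over untreated wells; some hits fall short of that in this replicate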
# HIV Env fusion: HIV envelope-mediated fusion inhibition; HeLa-JRFL Env/CEM21 cell fusion, luciferase; inhibition, % at 12.3 µM; 1.1% of 360,000 active;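 active means mean replicate inhibition score of at least 50 and every replicate individually at or above 50; inconclusive means only one of the two criteria met; inactive means mean below 50 and not all replicates reaching 50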;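 further: 0% = plate neutral controls and 100% = maraviroc near 300 nM; one replicate is shown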
# Rce1 inh: inhibitors of yeast Ras-converting enzyme | 0.27% of 290,000 active | Q03530 | calls only | yeast membranes, quenched prenylated peptide cleavage fluorescence;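 active means fall in fluorescence gain of 50% or more versus controls, with final raw signal at or below 3038400; inconclusive means same 50% fall but final raw signal above 3038400; inactive means fall in fluorescence gain under 50%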;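 further: plate controls were neutral control wells for no effect and wells lacking membranes for full effect; tested at 10 µM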
# Target sequence (Q03530 whole entry, looked up): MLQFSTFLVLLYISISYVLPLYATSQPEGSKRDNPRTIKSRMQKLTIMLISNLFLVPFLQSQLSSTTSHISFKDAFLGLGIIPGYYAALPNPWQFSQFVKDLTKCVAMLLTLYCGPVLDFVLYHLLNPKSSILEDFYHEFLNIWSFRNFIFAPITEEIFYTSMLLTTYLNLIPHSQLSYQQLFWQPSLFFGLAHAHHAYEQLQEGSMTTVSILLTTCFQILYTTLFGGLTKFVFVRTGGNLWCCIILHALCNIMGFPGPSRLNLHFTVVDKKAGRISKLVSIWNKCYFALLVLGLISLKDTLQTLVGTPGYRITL
# PABP polyA inh: PABP-poly(A) binding inhibition; 1% of 290,000 active; inhibition, % at 35 µM; PABP-poly(A) RNA binding, fluorescence polarization; P11940;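 active means 50% or more with normal probe brightness, or confirmed in later tests; inconclusive means above 50% with abnormal brightness, or retests that disagree; inactive means below 50% or failed in later tests; about a fifth of its hits are not listed in these tables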;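 further: calls also rest on retests at 20 µM and on dose response follow-up; controls were probe without protein and protein plus probe with vehicle; some compounds called inactive have numbers as strong as hits; many hits fall short of the cut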
# CSC inhib: blocks cancer stem cells. cancer stem cell-like cells viability, luminescence. inhibition, % at 7.5 µM. 1.1% of 300,000 active;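 active means mean at 75% or more and at least half the replicates too; inconclusive means mean and replicates disagree; tested in HMLE shEcad cells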;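 further: 0% = median of negative and 100% = median of positive control wells; the first replicate is given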
# eIF4H FP inh: inhibitors of RNA binding by human eIF4H; Q15056; eIF4H fluorescence polarization binding assay; inhibition, % at 35 µM; 0.94% of 290,000 active; AID 2012;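 active means 50% or more with normal probe brightness, or confirmed in later tests; inconclusive means above 50% with abnormal brightness, or retests that disagree; inactive means below 50% or failed in later tests; about a fifth of its hits are not listed in these tables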;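 further: calls also rest on retests at 20 µM and on dose response follow-up; 0% = protein and probe with vehicle and 100% = probe without protein; strong numbers were not always called active; many hits fall short of the cut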
# eIF4H FP inh retest: recorded beside eIF4H FP inh, whose call it bears; inhibition, %; compound at 20 µM; confirmation average;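 mean of two retest wells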
# PABP polyA inh retest: recorded beside PABP polyA inh, whose call it bears; inhibition, %; compound at 20 µM; confirmation repeats;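 mean of two retest wells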
# MT1-MMP act inh RFP: recorded beside MT1-MMP act inh, whose call it bears; RFP signal change, %; measured here: RFP expression control read;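 0 = vehicle wells; hits needed this value within 50% of zero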
# * hit, by the source's call; i = inactive; ? = inconclusive; · = no result given.
SMILES,MT1-MMP act inh,MT1-MMP act inh RFP,Yeast UUG start,HIV Env fusion,Rce1 inh,PABP polyA inh,CSC inhib,eIF4H FP inh,others
Cc1ccc(C(=O)N[C@@H](C)CN2C3=NC[C@H](C)N3C[C@H]2Cc2ccc(O)cc2)cc1Br,·,·,·,·,i,-3,·,-4,
CCCS(=O)(=O)NC(=O)C1(C)CCCN(C(=O)C(C)(C)Oc2ccc(Cl)cc2)C1 (stereo unspecified),0,3,-4,21,·,·,·,·,
COc1ccc(N=Cc2c(C)[nH][nH]c2=O)cc1,4,5,-10,-27,i,1,14,-6,
O=C(OC1C2CCC1C1CN(CCc3ccccc3)CC12)c1ccccc1 (stereo unspecified),3,-2,·,·,i,12,0,-2,
CC1(C)CC(=O)c2sc(N)nc2C1,3,2,-7,-44,i,-6,6,6,
Cc1ccc(S(=O)(=O)NCC(=O)NCC(=O)OCC(=O)N2CC(=O)Nc3ccccc32)cc1C,-1,1,·,6,i,-4,-8,-3,
Cc1ccc(CN2CCC(n3nccc3NC(=O)CCOc3ccccc3)CC2)o1,-3,3,-13,-9,i,10,-3,-13,
COc1ccccc1-c1csc(NC(=O)c2cc(-c3cccs3)nc3ccccc23)n1,-3,-2,·,-2,i,-5,7,-10,
NC(=O)NC(=O)COC(=O)c1cccnc1Nc1ccccc1F,-4,0,-15,3,i,-9,0,-8,
CCCNC(=O)Nc1cc(OCC)c(N2CCOCC2)cc1OCC,3,8,-26,-10,i,16,-4,8,
Cc1onc(-c2ccccc2)c1C(=O)c1ccccc1,-1,0,-18,-2,i,2,-2,7,
COc1ccc(C2OC[C@H]3O[C@H](O)[C@H](NC(C)=O)[C@@H](O)[C@@H]3O2)cc1 (stereo partly specified),2,6,1,-33,i,-2,·,15,
COc1ccc(-n2nnnc2C(C2CC2)N2CCN(C/C=C/c3ccccc3)CC2)cc1 (stereo unspecified),-4,-2,-1,-48,·,·,·,·,
CNc1ccncc1S(=O)(=O)NC,-4,-2,-25,-18,i,2,-6,-2,
O=C(Nc1cccc2ncccc12)c1ccc2c(c1)OCCO2,2,0,-12,·,i,5,5,-3,
COc1ccc(S(=O)(=O)NCCOc2ccccc2)cc1F,1,2,-17,-9,i,-8,3,2,
COc1ccccc1C(=O)N1CCNC(=O)C1CC(=O)Nc1ccc(Cl)cc1 (stereo unspecified),-1,3,16,·,i,0,4,-8,
O=C(COC(=O)c1ccc(-n2cnnn2)cc1)c1ccc(Br)cc1,5,2,-25,-31,·,·,·,·,
O=C(Nc1ccc(O)cc1C(=O)O)c1ccc2c(c1)C(=O)N(Cc1ccco1)C2=O,3,2,0,-2,i,23,-1,-1,
COc1ccccc1C1NC(=O)CCC1[N+](=O)[O-] (stereo unspecified),2,5,-5,-10,i,-8,-23,-8,
CC1CCCC/C1=N\NC(=S)Nc1ccccc1 (stereo unspecified),-1,-3,-10,-5,i,1,-13,-10,
Cc1ccc(OCC(O)Cn2c3ccccc3c3ccccc32)cc1 (stereo unspecified),-2,-5,-4,7,i,4,?,0,
COCCn1cnc2c1c(=O)n(CC(=O)NN)c(=O)n2Cc1ccccc1,0,-3,-8,13,i,2,-10,-9,
CC(=O)N1CCN(S(=O)(=O)c2cccc(C(=O)NC3CC3)c2)CC1,-3,0,-7,·,·,·,-2,·,
Cc1cccc(N(C(=O)CNC(=O)c2ccco2)C(C(=O)NC2CCCC2)c2ccncc2)c1 (stereo unspecified),-3,-8,6,·,i,0,-14,-10,
# (listing goes on)
SMILES,MT1-MMP act inh,MT1-MMP act inh RFP,Yeast UUG start,HIV Env fusion,Rce1 inh,PABP polyA inh,CSC inhib,eIF4H FP inh,others
O=C(CCc1ccccc1)N1CCN(c2ccccc2F)CC1,3,0,-11,10,i,-1,1,2,
O=C(COc1ccccc1)Nc1ccc(S(=O)(=O)Nc2ccccn2)cc1,1,2,6,-21,i,1,·,-7,
CC(C)CC(=O)Nc1cccc(NC(=O)c2ccccc2Cl)c1,4,2,·,10,i,-1,-5,-8,
N=c1n(Cc2ccc(Cl)cc2)c2ccccc2n1CC(O)c1ccco1 (stereo unspecified),-32,-16,-19,-51,·,16,-10,6,
O=C(CSc1cccc2cccc(Cl)c12)NC1=NCCS1,2,5,·,9,i,-15,13,-10,
O=C(Nc1cccc2[nH]c([C@H]3C[C@H](O)[C@@H](CO)O3)nc12)NC(c1ccccc1)c1ccccc1,-5,4,-19,-17,·,·,·,·,
CC(=O)Nc1cccc(-c2ccnc3c2CC(C)(C(=O)NCc2ccncc2)O3)c1 (stereo unspecified),5,3,-4,-14,·,·,·,·,
COc1ccc(C(C(=O)NC2CCCCC2)N(C(=O)Cc2c[nH]c3ccccc23)c2ccccc2)cc1OC (stereo unspecified),-14,-6,-29,-1,i,-4,-5,-16,
COc1ccc(NC(=O)Cn2nnc(C(=O)NCc3ccc(C)cc3)c2N)cc1OC,-1,-2,-18,-3,i,1,-12,-1,
CN1CCC(N(C)C(=O)CNC(=O)c2ccc(C(C)(C)C)cc2)CC1,-1,1,-14,7,i,-3,·,92,eIF4H FP inh retest=1;PABP polyA inh retest=3
Cc1nn(C(C)C(=O)NCCc2cccs2)c(=O)c2nn(-c3ccccc3)c(C)c12 (stereo unspecified),2,-2,0,0,i,6,5,-17,
COc1ccc(CCNC(=O)Cc2cc(OC)c(OC)cc2[N+](=O)[O-])cc1OC,0,0,-9,·,i,-2,-2,-4,
CCOc1cc(Cl)c(CNCCCN2CCOCC2)cc1OC,1,3,1,-11,i,13,-5,-4,
O=C(NC1CCCc2c1cnn2-c1cc(F)cc(F)c1)c1cc[n+]([O-])cc1 (stereo unspecified),2,2,-4,10,i,7,-12,-2,
CSc1ccccc1C(=O)NCCSC(C)(C)C,2,6,-18,-55,i,-2,-13,2,
Oc1ccc(CN2CCC(Cc3ccccc3)CC2)c2cccnc12,·,·,·,-1,·,8,·,24,
Cc1ccc(S(=O)(=O)N2CCN(S(=O)(=O)c3ccc(C)cc3)C2c2ccccc2)cc1,-2,-6,-17,105*,i,-7,1,8,
CC1CCN(C(=O)c2[nH]cnc2C(=O)Nc2ccon2)CC1,3,4,1,-6,·,·,21,·,
Cn1cccc1C1CCCN1CC(=O)Nc1ccc(F)c(F)c1F (stereo unspecified),-2,0,4,·,·,·,-5,·,
CON(C)C(=O)CC(CN(Cc1ccccc1)C(=O)OC(C)(C)C)c1ccc(Cl)cc1 (stereo unspecified),-19,-22,-6,33,·,·,14,·,
Cc1ccc(C)c(C(=O)OCC(=O)Nc2cccc(S(=O)(=O)N3CCCCC3)c2)c1,2,-31,-24,16,·,·,·,·,
Cc1c(Cl)cccc1NC(=O)Nc1ccn(C)n1,-3,1,-10,·,i,0,-9,3,
O=C(NNC(=O)c1ccc(F)c(S(=O)(=O)N2CCOCC2)c1)c1ccc(Br)cc1,0,1,-12,-3,·,·,·,·,
CCOC(=O)C(=CNc1ccc(Cl)cn1)C(=O)OCC,0,-2,·,-2,i,-1,-14,0,
O=C(O)CSc1nnc(-c2cc3ccccc3o2)n1-c1ccccc1,-3,4,-13,·,i,10,-2,-3,
# Going on with the list:
SMILES,MT1-MMP act inh,MT1-MMP act inh RFP,Yeast UUG start,HIV Env fusion,Rce1 inh,PABP polyA inh,CSC inhib,eIF4H FP inh,others
Cc1ccc(NC(=O)CCNC(=O)c2ccco2)cc1Cl,0,2,-10,-2,i,6,-8,7,
CC(=O)c1ccc(NC(=O)CN2C(=O)NC3(CCc4ccccc43)C2=O)cc1 (stereo unspecified),8,-4,-13,·,·,·,-4,·,
COc1cccc(CNCCc2c[nH]c3ccccc23)c1OCc1ccccc1,-21,-21,·,·,i,0,26,-4,
CCCCn1c(N)c(N(CCOC)C(=O)c2cc(-c3ccc(F)cc3)nc3ccccc23)c(=O)[nH]c1=O,-3,-7,-13,-3,i,·,10,·,
Cc1ccc2c(c1)C(O)(CC(=O)c1cccc(-n3cccc3)c1)C(=O)N2 (stereo unspecified),-3,2,2,-26,i,-2,-9,0,
COc1ccc(NC(=O)c2cccc(S(=O)(=O)N3CCc4ccccc43)c2)c(OC)c1,2,7,-6,-43,·,·,·,·,
Cc1cc(=O)[nH]c(SCC(N)=O)c1C#N,-5,1,-16,·,i,0,6,-2,
CC(=O)N1c2ccccc2N(Cc2ccc(C)cc2C)C(=O)C1(C)C,-1,-16,-2,-52,i,0,53,-10,
O=C(c1ccccc1)N1CCN(c2ncnc3c(-c4ccccc4)nsc23)CC1,2,-9,·,-26,i,-4,-7,-7,
Cc1sc(NC(=O)Cn2nc(C(F)(F)F)cc2C)c(C(=O)OC(C)C)c1C,-2,-5,-4,·,i,-4,8,5,
COc1ccc(C2N=C(c3ccccc3)NC(c3ccccc3)=N2)cc1,2,1,-13,·,i,-3,6,-3,
O=C(NNc1ccc([N+](=O)[O-])cn1)Nc1ccc(N=Nc2ccccc2)cc1,11,-5,-1,-19,·,·,·,·,
CC1(C)NC(=O)N(CCOCCSc2ccccc2)C1=O,2,9,·,·,i,-7,2,-13,
Cn1cc(CCNCc2cn[nH]c2-c2ccc(-c3ccccc3)cc2)cn1,13,4,-24,-3,i,0,-5,-12,
CC(=O)N(CCCNC(=O)c1ccccc1)C(=O)c1ccccc1,4,0,-12,-55,i,·,0,·,
N#CCC(=O)Nc1ccc(C(=O)OCc2ccccc2Oc2ccccc2)cc1,-6,-4,-9,3,i,-1,4,-6,
COc1ccc(CCNC(=O)CS(=O)Cc2nc(-c3cccs3)oc2C)cc1OC (stereo unspecified),5,1,24,-5,i,9,-9,-3,
CCOC(=O)Nc1ccc2c(c1)N(C(=O)CN(CC)CC)c1ccccc1C=C2,6,-1,11,·,i,0,2,-10,
CCOc1ccc(-n2c(SCC)nc3c(c2=O)SCC3)cc1,-4,-4,-10,11,i,-2,2,-17,
CCOCCCNC(=S)N(CCN(C)C)Cc1cc2cc3c(cc2[nH]c1=O)OCCO3,0,4,-29,6,i,0,-3,-3,
CN(C(=O)Cc1c[nH]c2ccccc12)C(C(=O)Nc1ccc2c(c1)OCO2)c1ccccc1 (stereo unspecified),-6,-2,-5,-3,i,-2,-6,-2,
COc1ccc(Cc2nnc(NC(=O)c3ccccc3[N+](=O)[O-])s2)cc1,-1,-3,-17,-5,i,2,-10,-2,
O=C(NCC1CCCO1)c1ccc(NC(=O)c2ccc(Br)cc2)cc1 (stereo unspecified),2,-4,-14,-12,i,·,-4,·,
O=S(=O)(Nc1cccc(S(=O)(=O)N2CCCCC2)c1)c1ccccc1F,-3,4,-9,34,·,·,-9,·,
COc1cc(-c2nnc(CSc3nnc(N)s3)o2)cc(OC)c1OC,2,0,·,·,i,-6,-7,-9,
CCOC(=O)CSCc1csc(CC(=O)Nc2ccccc2C)n1,-21,6,6,-2,i,2,-5,18,
Cc1noc(C)c1C(=O)N1CCOCC1,-6,6,-9,·,i,-8,-10,9,
COC(=O)c1ccccc1NC(=O)CN(C)S(=O)(=O)c1cc(C)ccc1OC,-1,-5,1,·,i,2,-14,12,
CCOC(=O)c1cc(-c2ccccc2)sc1NC(=O)COC(=O)c1cccc(S(N)(=O)=O)c1,-4,-3,·,-54,i,-4,15,10,
